Screens (PubChem BioAssay)
B2AR ag: beta2AR agonists driving receptor internalization, primary screen, cell-based, FAP fluorogen, flow cytometry. response, % (no concentration beside the values). Am2.2-beta2AR cells; reference of the scale not given here. AID 504454, 2011. 340,000 compounds, 0.43% hits. Beta-2 adrenergic receptor (Homo sapiens), P07550;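 active means response above a set limit, near 3 SD of response in nonfluorescent compounds, cut at about 42% in these data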;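 further: stock transfer was 100 nL into about 11 µL; a reference agonist was the positive control; negative values mostly stem from fluorescent compounds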
Target sequence (P07550 whole entry, looked up): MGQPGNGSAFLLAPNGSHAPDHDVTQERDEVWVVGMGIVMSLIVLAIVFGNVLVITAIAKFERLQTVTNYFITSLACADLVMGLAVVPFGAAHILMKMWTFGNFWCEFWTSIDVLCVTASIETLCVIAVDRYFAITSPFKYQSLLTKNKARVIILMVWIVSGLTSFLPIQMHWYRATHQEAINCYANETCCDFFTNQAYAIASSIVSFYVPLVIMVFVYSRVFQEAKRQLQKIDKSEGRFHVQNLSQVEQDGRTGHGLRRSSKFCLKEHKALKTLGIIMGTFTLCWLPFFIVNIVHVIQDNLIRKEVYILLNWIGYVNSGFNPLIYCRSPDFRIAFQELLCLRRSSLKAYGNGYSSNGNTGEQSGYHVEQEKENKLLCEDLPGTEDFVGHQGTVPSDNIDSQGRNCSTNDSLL
RanGTP-Imp inh: inhibitors of RanGTP-importin-beta interaction, primary screen, biochemical, FRET, CFP-Ran, YFP-importin-beta, homogeneous; cell-free CFP-Ran/YFP-importin-beta FRET ratio; AID 2216, 2009; 300,000 compounds, 1.1% hits; inhibition, % (test concentration not listed); Ran GTPase (GTP-bound) - importin-beta complex;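 active means most replicates above 15%; inconclusive means exactly half above 15%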;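 further: 0% = DMSO wells and 100% = Ran loaded with GDP instead of GTP; wells of about 40 µL received 100 nL stock; the first replicate is given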
Vif TR-FRET: inhibitors of Vif binding to APOBEC3G peptide, primary screen, biochemical, TR-FRET, GST-Vif 1-94, biotin-A3G peptide, dose response retest (AID 1117319); TR-FRET GST-Vif / biotin-A3G peptide binding; higher % means a stronger effect; test concentration not given here; strong numbers were not always called active; Virion infectivity factor (Human immunodeficiency virus type 1 group M subtype B (isolate …; inhibition, %, or IC50 in µM where a hit was titrated; 260,000 compounds, 0.57% hits;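 active means above the screen mean plus three standard deviations and confirmed in dose response; inconclusive means results disagree or hit not tested in dose response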;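 further: Vif residues 1-94 fused to GST binding biotinylated APOBEC3G peptide 110-148; 0% = full assay without inhibitor and 100% = GST in place of GST-Vif; retest series ran down from 100 µM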
ALR H2O2 inh: inhibitors of human ALR sulfhydryl oxidase, primary screen, biochemical, H2O2 detection, HRP-luminol luminescence, single point; FAD-linked sulfhydryl oxidase ALR (Homo sapiens), P55789; purified ALR, DTT oxidation; inhibition, % (test concentration not listed); 290,000 compounds, 3.8% hits; AID 485317, 2010;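 active means mean and each replicate at 75% or more; inconclusive means only one of the two met; inactive means neither met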;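 further: stock transfer was 7.5 nL into about 7.5 µL; 0% = neutral wells and 100% = wells with inactivated enzyme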
Target sequence (P55789 whole entry, looked up): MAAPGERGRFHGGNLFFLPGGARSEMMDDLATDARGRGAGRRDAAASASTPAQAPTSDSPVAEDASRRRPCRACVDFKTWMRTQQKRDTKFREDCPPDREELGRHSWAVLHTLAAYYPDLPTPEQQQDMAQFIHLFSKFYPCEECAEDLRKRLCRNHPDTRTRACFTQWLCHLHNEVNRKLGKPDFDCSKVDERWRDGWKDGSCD
HNF4A DNA FP: change in binding of human HNF4A to DNA, primary screen, biochemical, fluorescence polarization, FITC-DNA; Hepatocyte nuclear factor 4-alpha (Homo sapiens), P41235; 1 h; activity change, % at 10 µM; 360,000 compounds, 0.3% hits; AID 1224865, 2016; in the data active means activity change above about 30%, passing the limit was not always enough;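 further: controls were the assay level and a saturating level of protein; the project sought stronger binding though the title names inhibitors; some compounds called inactive have numbers as strong as hits; positive values seem to mean higher polarization but the record does not say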
Target sequence (P41235 whole entry, looked up): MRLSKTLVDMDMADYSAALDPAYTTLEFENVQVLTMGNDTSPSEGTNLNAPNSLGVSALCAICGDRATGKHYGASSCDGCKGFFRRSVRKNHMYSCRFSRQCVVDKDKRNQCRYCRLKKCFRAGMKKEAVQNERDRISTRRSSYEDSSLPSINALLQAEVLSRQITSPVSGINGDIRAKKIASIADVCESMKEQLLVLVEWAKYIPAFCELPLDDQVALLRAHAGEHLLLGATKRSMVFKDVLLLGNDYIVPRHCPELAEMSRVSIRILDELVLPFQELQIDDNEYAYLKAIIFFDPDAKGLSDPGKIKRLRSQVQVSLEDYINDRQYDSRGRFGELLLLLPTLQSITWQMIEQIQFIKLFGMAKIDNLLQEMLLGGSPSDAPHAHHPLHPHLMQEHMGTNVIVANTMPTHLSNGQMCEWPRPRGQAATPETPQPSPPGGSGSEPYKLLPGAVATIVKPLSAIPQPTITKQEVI
Calb FLC: C. albicans growth inhibition with fluconazole, primary screen, CaCi-2 strain, Alamar Blue fluorescence; C. albicans CaCi-2 (fluconazole-resistant clinical isolate) + fluconazole, 48 h; growth inhibition, % (no concentration beside the values); 300,000 compounds, 0.57% hits; AID 1979, 2009;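 active means most replicates above 75%; inconclusive means exactly half above 75%; inactive means most below 75%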;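 further: all wells also contain fluconazole at 8 µg/ml as a sub-toxic cotreatment; 0% = median of DMSO wells and 100% = median of geldanamycin control wells; wells of about 8 µL received 7.5 nL stock; the first replicate is given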
LANA-H2A inh: blockers of LANA interaction with H2A/H2B – biochemical, FP readout, HTS, primary screen. inhibition, % (concentration not given with the values). AID 2629, 2010. cell-free LANA-H2A/H2B peptide, fluorescence polarization. 320,000 compounds, 0.6% hits; in the data active means inhibition mostly above about 10%, no sharp cut-off; inactive means mostly below about 6.7%;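 further: stock transfer was 7.5 nL into about 10 µL; 0% = median of vehicle wells and 100% = median of positive control wells; one replicate is shown; the record names a cut of 25% in any replicate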
* = called active by the depositor; ? = inconclusive; nt = not tested or not shown; & = joins results of further samples.

nr	structure	B2AR ag	RanGTP-Imp inh	Vif TR-FRET	ALR H2O2 inh	HNF4A DNA FP	Calb FLC	LANA-H2A inh
1	Cc1ccc(C(=O)N2CCN(S(C)(=O)=O)C2)cc1	-0.9	-2.1	-10.7%	-0.1	-2.0	-4.8	-0.7
2	CC1CC(C)CN(C(=O)CNC(=O)Cn2ccc3ccccc3c2=O)C1 (centres undefined)	-5.0	-6.9	3.0%	-6.2	0.5	-11.3	0.2
3	Cc1cccc(N2CCN(C(=O)C3CCN(S(=O)(=O)c4cnc[nH]4)CC3)CC2)c1C	-6.5	8.5	?	0.2	1.9	0.3	2.8
4	CCCNc1c(NC(C)=O)c(=O)oc2ccccc12	1.5	?	1.4%	8.9	-1.5	-3.3	-1.9
5	COc1nc(Nc2ccc([N+](=O)[O-])cc2)nc(NC(C)C)n1	-2.8	-2.6	-4.7%	-3.2	2.2	2.4	-5.2
6	CCCCNC(=S)N/N=C1\CCCCc2ccccc21	-6.1	3.1	-6.8%	11.5	1.4	-19.0	1.9
7	O=C(C(=O)N1CCCc2ccccc21)N1CCCc2ccccc21	9.2	-1.3	nt	nt	4.0	14.3	4.0
8	CN=C1c2cc3cc(OC)ccc3n2CCN1Cc1ccccc1	-4.6	1.3	-6.8%	nt	-2.0	2.3	nt

Record cards, from the list above. Values in the order: B2AR ag	RanGTP-Imp inh	Vif TR-FRET	ALR H2O2 inh	HNF4A DNA FP	Calb FLC	LANA-H2A inh
O=C(C(=O)N1CCCc2ccccc21)N1CCCc2ccccc21 in the list: 9.2	-1.3	nt	nt	4.0	14.3	4.0
CC1CC(C)CN(C(=O)CNC(=O)Cn2ccc3ccccc3c2=O)C1 (centres undefined) in the list: -5.0	-6.9	3.0%	-6.2	0.5	-11.3	0.2

Individual results from the list:
no. 6 – B2AR ag: -6.1
no. 8 – RanGTP-Imp inh: 1.3
no. 3 – ALR H2O2 inh: 0.2
no. 5 – Vif TR-FRET: -4.7%
no. 2 – ALR H2O2 inh: -6.2
no. 4 – LANA-H2A inh: -1.9

The listing picks up with the 2 entries that preceded the break.
nr	structure	B2AR ag	RanGTP-Imp inh	Vif TR-FRET	ALR H2O2 inh	HNF4A DNA FP	Calb FLC	LANA-H2A inh
7	O=C(C(=O)N1CCCc2ccccc21)N1CCCc2ccccc21	9.2	-1.3	nt	nt	4.0	14.3	4.0
8	CN=C1c2cc3cc(OC)ccc3n2CCN1Cc1ccccc1	-4.6	1.3	-6.8%	nt	-2.0	2.3	nt
9	CN(C(=O)NC1CCCCC1)c1ccccc1	1.1	-2.4	-8.0%	-0.7	-4.6	-4.0	-0.7
10	CCOC(=O)c1cc(C)sc1NC(=O)C(c1ccccc1)c1ccccc1	1.0	0.2	-8.4%	-11.8	4.2	4.2	-0.7
11	O=C(CSc1nnc(-c2ccncc2)n1Cc1ccccc1)NCCc1ccccc1	-1.5	1.1	0.2%	-12.4	-1.7	-9.2	-4.3
12	O=C(CSc1ncccn1)Nc1cccc(S(=O)(=O)N2CCOCC2)c1	-3.9	nt	-4.7%	-4.6	2.8	nt	-2.9
13	CCNc1nc(OC)nc(N(OC)S(=O)(=O)c2ccc(C)cc2)n1	-11.4	1.7	-7.5%	82.0*	2.4	-1.5	9.3
14	CC(C)(CNc1ccc(C(F)(F)F)cc1[N+](=O)[O-])N1CCOCC1	-2.3	-2.0	nt	-16.7	-0.3	-14.6	-4.0
15	Cc1ccccc1Cn1cc(NC(=O)c2cc3nc(-c4ccco4)cc(C(F)(F)F)n3n2)cn1	-0.5	30.2*	-2.7%	6.2	-1.9	11.3	1.1
16	Cc1c(C(=O)NCc2cccs2)oc2ccc(Br)cc12	-3.6	-2.1	-18.6%	4.5	1.7	38.2	-0.9
17	Cc1[nH]c(=O)[nH]c(=O)c1Sc1ccccc1[N+](=O)[O-]	7.1	-1.4	nt	-13.2	-1.9	0.6	8.4
18	N#Cc1ccccc1COC(=O)c1cccc(S(=O)(=O)N2CCCC2)c1	10.3	nt	-1.4%	-4.4	1.0	nt	-1.5
19	CCc1c(C(=O)NNC(=S)Nc2ccc(S(=O)(=O)Nc3ncccn3)cc2)csc1C	1.2	1.6	10.0%	98.0*	-0.9	-4.4	3.9
20	Cc1cc(C)cc(Nc2cnn(C34CC5CC(CC(CC(=O)O)(C5)C3)C4)c(=O)c2Cl)c1	-2.3	-2.0	15.4%	14.9	2.9	-0.5	2.6
21	O=C(N/N=C/c1ccc(O)c(O)c1O)/C(=C/c1ccc([N+](=O)[O-])cc1)NC(=O)c1ccccc1	7.8	-1.5	0.87µM*	90.7*	-0.6	103.5*	1.1
22	CC(=O)N1CCCC1(C(=O)O)c1ccccc1 (centres undefined)	-5.2	-4.7	-1.6%	nt	1.7	1.9	0.1
23	COc1cc(NC(=O)COC(=O)c2ccc([N+](=O)[O-])s2)cc(OC)c1OC	2.2	nt	nt	-12.5	0.4	nt	5.9
24	CCC1(C)NC(=O)N(CC(=O)Nc2cc(C)on2)C1=O (centres undefined)	5.1	nt	nt	-7.2	-1.3	nt	-3.3
25	CCCNC(=O)NC(=O)c1cnccc1C(F)(F)F	-3.5	0.1	?	-11.4	0.1	28.2	-4.2
26	CC(C)OC(=O)c1c(N)sc2c1CCCC2	11.8	nt	12.2%	nt	1.8	nt	5.1
27	Cc1cn(-c2cc(C(=O)Nc3ccc(C)c(NC(=O)N4CCNC4=O)c3)cc(C(F)(F)F)c2)cn1	-5.0	?	-8.4%	1.2	0.9&1.8	-0.1	2.6
28	Cc1cc(-c2n[nH]c(=S)n2/N=C/C=C/c2ccccc2)n[nH]1	3.5	3.8	nt	23.0	-0.8	-1.7	-5.2
29	COC(=O)/C=C1/N/C(=N\c2nc(C)cc(C)n2)N(c2ccccc2)C1=O	4.3	2.9	8.8%	10.8	3.8	-15.9	-2.0
30	CC(C)CCNC(=O)[C@H](CC(C)C)NC(=O)[C@H]1O[C@@H]1C(=O)O	nt	-1.5	?	?	nt	5.9	5.1
31	CSc1nc(C)cc(/C=C\c2ccccc2)c1C#N	8.0	-1.2	-8.6%	-7.6	3.3	7.1	-22.8
32	COc1ccc2c(c1)CCc1cn3ncc(C#N)c3nc1-2	-5.9	10.6	-3.3%	-16.4	2.3	-1.2	5.3
33	CC(C)(C)OC(=O)NCc1ccc(CNC(=O)c2ncn(Cc3ccccc3)c2C(=O)NCc2ccc(CNC(=O)OC(C)(C)C)cc2)cc1	-6.0	nt	nt	-2.0	4.3	nt	-2.8
34	O=C(COC(=O)CCN=C1NS(=O)(=O)c2ccccc21)NC1CCCCCCC1	5.9	-7.9	-5.1%	7.1	1.0	7.0	4.5
35	COC(=O)c1cc(-c2ccc(C)cc2)n[nH]1	0.5	?	nt	-1.9	0.0	-16.7	-2.7
36	Cc1ccccc1N1CCN(C2CCCN(C(=O)CCN3CCCO3)C2)CC1 (centres undefined)	2.3	-6.4	-2.5%	2.8	-3.3	2.4	-0.2
37	COc1cccc(CNS(=O)(=O)c2c(C(=O)N3CCCCC3)c(C)n(C)c2C)c1	9.7	0.4	nt	-0.8	5.8	-6.8	4.4
38	Cc1nnc2ccc(N3CCCC3)nn12	4.8	0.6	-7.6%	-4.8	-1.0	11.4	-3.0
39	COC(=O)c1ccccc1NC(=O)NCc1cccnc1	-4.7	-5.9	8.5%	-4.8	1.9	14.1	1.4
40	COc1ccc(CNC(=O)C2CCCN(Cc3nc(-c4cccc(C)c4)oc3C)C2)cc1 (centres undefined)	-5.2	-1.6	-10.2%	-6.6	-2.3	-10.8	-1.8
41	CCc1ccc(-n2cnc3cc(C(=O)NCC(OC)OC)ccc32)cc1	-1.4	-6.6	0.5%	-18.8	-3.5	6.8	4.3
42	O=C(O)C1(C(=O)O)CCCC1	1.6	nt	-4.5%	nt	-1.5	nt	nt
43	CCc1nc(Nc2ccc3nccnc3c2)c2oc3ccccc3c2n1	1.3	7.6	2.8%	-28.8	2.6	-6.4	-6.5
44	Cc1csc(NC(=O)c2cn3ccccc3n2)n1	-27.1	7.0	0.1%	-1.3	3.5	6.7	-0.5
45	CC(C)c1nc2oc3c(NCC4CCCO4)ncnc3c2c2c1CCC2 (centres undefined)	9.1	-2.9	-8.1%	nt	0.2	10.3	-2.7
46	C[C@H](NC(=O)c1ccccc1Cl)C(=O)OC(C(=O)Nc1cc(C(F)(F)F)ccc1Cl)c1ccccc1 (some centres undefined)	10.8	?	-5.5%	-5.5	0.2	-16.6	1.4
47	O=C(Nc1ccccc1C(=O)N1CCCCCC1)c1ccccc1	2.1	3.8	nt	nt	8.5	13.6	7.4
48	COc1cccc(-n2c(Cn3nc(C(F)F)cc3C(F)F)n[nH]c2=S)c1	-4.4	-0.7	20.8%	72.2	-0.9	1.4	-3.6
49	S=C(Nc1nc2c(s1)CCCC2)NC1CC1	-3.8	4.1	1.4%	85.9*	2.2	?	2.0
50	COc1ccc(CCN(C)Cc2ccc(OCc3ccccc3)c(OC)c2)cc1OC	-4.3	-1.9	3.4%	99.3*	1.9	-33.5	6.0
51	COc1ccc(NC(=O)/C=C/c2cccc(Br)c2)cn1	11.4	-4.3	nt	nt	-16.8	-9.6	8.1
52	CCOCCn1c(=O)c2c(nc3n2CC(C)CN3Cc2ccccc2)n(C)c1=O (centres undefined)	-7.2	3.6	-4.0%	8.5	-0.7	-0.1	-0.7
53	C=CCC1(CC=C)CCCN1C(=O)c1cc(COc2ccccc2SC)on1	4.5	6.5	-10.5%	-12.3	6.9	-13.7	-2.4
54	COc1ccc(Nc2ncnc3sc(C)cc23)cc1	-10.2	-4.5	-3.5%	7.1	3.4	-2.7	-1.3
55	Nc1nc(C(=O)N2CCOCC2)nn1S(=O)(=O)c1ccccc1	1.3	0.5	-6.3%	2.8	2.6	-19.0	0.5
56	COC(=O)C1=C(C)NC(C)=C(C(=O)OC)C1c1ccc(OC(=O)c2ccco2)cc1	2.7	?	-4.7%	-2.6	-9.1	-4.6	0.7
57	Cc1ccccc1N1C(=O)c2sc3nc4c(c(=O)n3c2C1=O)CCC4	-18.4	2.4	15.7%	34.0	1.7	16.7	-3.1
58	COc1ccccc1NC(=O)CCCN1C(=O)C2CC=CCC2C1=O (centres undefined)	2.9	-2.4	-4.0%	6.6	3.6	-6.2	2.1
59	CN1CCN(C2=C(NS(=O)(=O)c3ccccc3)C(=O)c3ccccc3C2=O)CC1	6.5	-0.3	-3.2%	-16.4	0.4	-5.9	7.2
60	O=c1c2ccccc2nc(/C=C/c2ccccc2)n1CCc1ccccc1	7.1	-3.6	nt	49.7	-0.1	-0.4	-2.9
61	COc1ccc(C(C#N)N2CCCCCC2)cc1OC (centres undefined)	-13.3	-2.3	0.1%	-4.3	0.2	4.1	1.3
62	Cc1cccc(C)c1N1CCN(S(=O)(=O)N2CCCCC2)CC1	10.0	-0.6	-2.6%	2.2	0.6	-32.1	-0.2
63	Cc1ccc(S(=O)(=O)NCCC2=CCCCC2)cc1	0.5	nt	-10.4%	nt	0.3	nt	nt
64	CSc1ccccc1C(=O)NCc1ccc(S(N)(=O)=O)cc1	0.3	-2.4	-1.9%	-29.1	-0.1	1.7	-1.1
